KCNQ2 pot = potentiators of rat KCNQ2 potassium channel; 310,000 tested, 0.54% active; AID 2239; O88943; CHO-K1 KCNQ2, FluxOR thallium flux fluorescence; stronger effect = higher value; B-score at 10 µM;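 active = fluorescence ratio B-score at least 3 SD of library B-scores, with initial fluorescence B-score within 3 SD, cut at about 5.3 in these data; same plate scores as AID 2156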;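 also: B-score of peak minus minimum over baseline fluorescence ratio after K+ and Tl+ stimulus; positive B-score means potentiation of KCNQ2 with more thallium influx and brighter signal; only the inactives scoring about 0 or higher are listed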
Target sequence (O88943 whole entry, looked up): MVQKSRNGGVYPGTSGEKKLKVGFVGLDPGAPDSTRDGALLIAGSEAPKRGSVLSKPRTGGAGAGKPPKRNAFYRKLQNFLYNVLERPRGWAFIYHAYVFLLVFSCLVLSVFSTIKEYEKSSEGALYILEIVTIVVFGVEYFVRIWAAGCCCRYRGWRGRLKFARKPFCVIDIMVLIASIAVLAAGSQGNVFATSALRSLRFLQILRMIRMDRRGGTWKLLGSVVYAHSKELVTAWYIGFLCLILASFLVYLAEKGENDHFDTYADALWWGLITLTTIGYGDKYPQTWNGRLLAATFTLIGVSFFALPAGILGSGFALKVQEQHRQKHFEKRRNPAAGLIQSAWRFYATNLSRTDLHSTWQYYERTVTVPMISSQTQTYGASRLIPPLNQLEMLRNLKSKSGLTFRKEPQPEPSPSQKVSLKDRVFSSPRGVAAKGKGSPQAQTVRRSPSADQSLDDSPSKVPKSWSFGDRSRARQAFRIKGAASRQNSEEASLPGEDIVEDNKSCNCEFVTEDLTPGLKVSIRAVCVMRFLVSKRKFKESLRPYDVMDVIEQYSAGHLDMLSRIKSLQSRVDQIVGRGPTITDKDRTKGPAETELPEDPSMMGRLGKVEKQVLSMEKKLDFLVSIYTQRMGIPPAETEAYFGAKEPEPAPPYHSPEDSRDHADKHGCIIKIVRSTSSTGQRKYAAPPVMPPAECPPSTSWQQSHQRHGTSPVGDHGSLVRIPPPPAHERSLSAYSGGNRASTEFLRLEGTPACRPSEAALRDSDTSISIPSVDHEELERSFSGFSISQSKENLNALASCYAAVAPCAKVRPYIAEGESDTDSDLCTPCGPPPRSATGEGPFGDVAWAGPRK
KCNQ2 pot baseline = also measured in KCNQ2 pot; calls as there; B-score; compound at 10 µM; measured here: initial fluorescence intensity artifact check;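 brightness before thallium and not channel activity; 0 = typical well and far values either way flag optical interference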
Starred values were filed as active, the others as inactive.

SMILES	KCNQ2 pot	KCNQ2 pot baseline
COc1ccccc1NC(=O)CCSc1nnc(-c2ccncc2)o1	3.89	2.53
CC1C(=O)N(c2ccc(S(=O)(=O)N(C)C)cc2)C1(/C=C/c1ccccc1)C(=O)NC1CCCC1 (centres undefined)	1.41	-0.25
COc1cccc(-c2cc(C(=O)Nc3ccc(OC)c(OC)c3)no2)c1	0.02	-0.01
CC1(C)CN=C(NC2CCCCC2)S1	0.01	-0.23
COC(=O)c1cccc(C(=O)Nc2cnc3ccccc3c2)n1	0.75	1
O=C(OCC(=O)N1CCN(Cc2ccccc2)CC1)c1ccc(Cl)cc1	0.48	-0.48
CN(C(=O)c1ccncc1)c1nnc(-c2cnccn2)s1	1.09	-1.61
Cc1cccc(C(C#N)c2ccc(Cl)nn2)c1 (centres undefined)	1.23	0.1
CCOC(=O)CCc1c(C)n(CC)c2ncnn2c1=O	0.92	-1.65
CC(=O)c1ccc(NC(=O)C2(S(=O)(=O)c3ccccc3)CC2)cc1	0.44	0.97
O=c1cc(N2CCN(c3ccc(F)cc3)CC2)[nH]c(=O)n1Cc1ccc(F)cc1	0.17	-0.86
O=C(Nc1ccccc1)Nc1nnc(CSCc2ccccc2Cl)s1	0.89	0.02
Cc1cc(NC(=S)NC(=O)c2ccco2)c2ccccc2n1	1.52	2.09
COc1cccc(N2CCN(c3ccc(N4C(=O)CCC4=O)cc3[N+](=O)[O-])CC2)c1	1.18	-0.42
CN(Cc1ccccc1)C(=O)c1nc2ccccn2c1CNCCOc1cccnc1	0.53	0.06
CC(NC(=O)NC1CCCCC1)C(c1cccs1)N1CCOCC1 (centres undefined)	0.87	-1.36
NC1=NC2(CCCC2)N=C(Nc2ccccc2)N1	0.12	-0.86
Cn1c(=O)c(=O)n(C)c2cc(S(=O)(=O)N3CCCCC3)ccc21	0.63	-0.15
O=C(COc1ccc(NC(=O)c2cccs2)cc1)c1ccc(F)cc1	0.23	-0.76
COc1cc(-c2csc(N3CCOCC3)n2)cc(OC)c1OC	0.33	-0.03
CC1CCc2c(sc(NC(=S)NC(=O)c3ccccc3)c2C#N)C1 (centres undefined)	0.29	2.01
O=c1cnn([C@@H]2O[C@H](CO)[C@@H](O)[C@H]2O)c(=O)[nH]1	0.1	-0.3
O=C(NCCCn1ccnc1)C(=O)NCC1OCCCN1S(=O)(=O)c1ccc(Cl)cc1 (centres undefined)	0.24	0.81
O=[N+]([O-])c1ccc2[nH]c3nc4ccccc4nc3c2c1	0.88	-2.53
Cc1cccc2cc(COC(=O)c3ccccn3)c(=O)[nH]c12	0.12	-0.91

In another format: 2 of the compounds above.
CC1CCc2c(sc(NC(=S)NC(=O)c3ccccc3)c2C#N)C1 (centres undefined)
  KCNQ2 pot = 0.29; KCNQ2 pot baseline = 2.01

O=c1cnn([C@@H]2O[C@H](CO)[C@@H](O)[C@H]2O)c(=O)[nH]1
  KCNQ2 pot = 0.1; KCNQ2 pot baseline = -0.3

(listing goes on)
SMILES	KCNQ2 pot	KCNQ2 pot baseline
O=C(Nc1ccccc1)NC1CCCCC1	0.04	-0.05
COC(=O)C1CCCN1C(=O)COc1ccc(Cl)cc1Br (centres undefined)	14.8*	-0.56*
O=C(Cn1[nH]c(=O)c2ccccc2c1=O)NC1CCCCCC1	1.78	-0.02
O=C(Nc1ccc(Cl)cc1C(=O)NCc1cccnc1)c1ccco1	0.64	1.56
Cc1noc(C)c1CSc1ccccc1C(=O)Nc1nccs1	1.8	-0.78
O=[N+]([O-])c1ccc(Cc2nnc(-c3ccccc3Cl)o2)cc1	0.99	-0.02
CCN1C(=O)/C(=C2/C=Cc3cc(C)ccc3N2CC)N(C)C1=S	3.09	-2.09
Cc1cc(/C=N/n2cnnc2)c(C)n1-c1cccc(C(=O)O)c1	0.01	-0.49
COc1ccc(NC(=O)c2cc(Cl)ccc2Cl)c([N+](=O)[O-])c1	1.46	-1.01
CC1=CC(C)(C)n2c(O)c(N=N)c3c(C)ccc1c32	5.29*	0.29*
CC(=O)Nc1ccc(OCC(O)Cn2cncn2)cc1 (centres undefined)	0.01	-0.25
COc1cccc(CN2CCC(C(=O)N3CCN(c4ccccc4F)CC3)CC2)c1OC	2.2	0.3
O=C(Nc1cccnc1)c1cccc(F)c1	1.16	-0.87
Cc1cccc(C)c1NC(=O)CSc1ncnc2nc[nH]c12	0.03	-0.02
COc1ccc(Cl)cc1NC(=O)Cn1nc(-c2ccc(C)cc2)n(C)c1=S	0.8	-1.17
COc1ccc(S(=O)(=O)N(CC(=O)NCCC(C)C)c2ccccc2)cc1OC	0.14	-1.19
CCCCC(=O)Nc1nnc(SCC(=O)Nc2ccc(OC)cc2)s1	0.97	1.24
COc1ccc(NC(=O)CCSc2ccc(C)cc2)cc1	1.03	-0.69
COc1ccc(F)cc1C(=O)C1CCCN(Cc2cccn2-c2ccccn2)C1 (centres undefined)	2.79	-0.93
O=C(/C=C\c1ccc(-c2cccc([N+](=O)[O-])c2)o1)N1CCOCC1	0.16	-0.64
CCN(C(=O)c1ccc(S(C)(=O)=O)cc1)C12CC3CC(CC(C3)C1)C2	0.67	-1.15
COC(=O)c1oc2ccc(Cl)cc2c1N	0.69	0.44
Cc1ccc(NC(=O)NC(=O)c2ccccc2)cc1F	0.21	1.06
Nc1nc(SCC(=O)Nc2ccc(OCc3ccccc3)cc2)n[nH]1	1.2	1.01
COc1ccc(-c2cn3cc(C)ccc3n2)cc1OC	1.62	0.28

Ordered by number of heavy atoms (largest number first): some entries from above
SMILES	KCNQ2 pot	KCNQ2 pot baseline
COc1cccc(CN2CCC(C(=O)N3CCN(c4ccccc4F)CC3)CC2)c1OC	2.2	0.3
COc1ccc(F)cc1C(=O)C1CCCN(Cc2cccn2-c2ccccn2)C1 (centres undefined)	2.79	-0.93
Cc1cc(/C=N/n2cnnc2)c(C)n1-c1cccc(C(=O)O)c1	0.01	-0.49

Entries of single compounds, quoted from the list.
`COc1ccc(-c2cn3cc(C)ccc3n2)cc1OC` in the list: KCNQ2 pot = 1.62; KCNQ2 pot baseline = 0.28
`Cc1noc(C)c1CSc1ccccc1C(=O)Nc1nccs1` in the list: KCNQ2 pot = 1.8; KCNQ2 pot baseline = -0.78
`COc1ccc(Cl)cc1NC(=O)Cn1nc(-c2ccc(C)cc2)n(C)c1=S` in the list: KCNQ2 pot = 0.8; KCNQ2 pot baseline = -1.17

Next section.
SMILES	KCNQ2 pot	KCNQ2 pot baseline
COc1ccc(CNC(=O)CCSc2ccc(F)cc2)cc1OC	0.45	-1.12
Cc1cc(S(=O)(=O)N2CCOCC2)ccc1OCC(=O)Nc1ccc(Br)cc1F	0.56	-0.26
CCc1cccc(OCCCCNCCCOC)c1	1.23	0.24
CCCCNC(=O)CSc1nc2c(sc(=S)n2-c2cc(Cl)ccc2OC)c(=O)[nH]1	1.6	1
CC1CCC(C(C)C)C(OP(=O)(c2ccccc2)C(O)c2ccncc2)C1 (centres undefined)	0.79	-2.21
O=C(CSc1nnc(Nc2ccccc2)s1)NN1C(=O)NC2(CCCCC2)C1=O	1.81	1.81
CN(C)c1nc(C#N)nc(N2CCOCC2)n1	2.28	-0.06
Cc1ccc(-n2ccn(CC(=O)NCCc3ccccc3)c(=O)c2=O)cc1C	0.51	0.48
O=C(CSc1nnc(NC(=O)c2ccco2)s1)Nc1ccc2c(c1)OCCO2	0.02	0.41
CCSc1nnc(NC(=O)C(C)Sc2nc3ccccc3[nH]2)s1 (centres undefined)	2.97	0.44
CCOC(=O)C1CCCN(C(=O)CCCOc2cc(=O)n(C)c3ccccc23)C1 (centres undefined)	0.05	-1.07
COc1ccc(OC)c(NC(=O)CCN2CCN(CCO)CC2)c1	0.44	1.2
CCOC(=O)c1ccc(NC(=O)CSc2ccc(-c3ccncc3)nn2)cc1	0.05	-1.34
CCOC(=O)/C=C/C(=O)OCc1csc(CC(=O)Nc2ccccc2C)n1	1	-1.45
Cc1cccc(C(=O)NCCNC(=O)c2cccnc2)c1	0.12	0.48
CC(=O)NC(CC(=O)OCC(=O)Nc1ccc2c(c1)OCO2)c1ccccc1 (centres undefined)	0.06	0.01
CCOc1ccc(NC(=O)CN2CCc3ccccc3C2)cc1	0.04	-0.07
COc1ccc(-c2nn(-c3ccccc3)cc2CNCc2cccnc2)c(F)c1	0.03	1.35
CCOc1ncnc2c1[nH]c1ccccc12	0.17	-0.81
O=C(CSc1nc(Nc2ccccc2)nc(N2CCOCC2)n1)Nc1ccccc1Cl	0.02	0.09
COc1cc(/C=N/NC(=O)COc2ccccc2[N+](=O)[O-])ccc1OC(=O)c1ccco1	0.19	0.07
O=C(CCSCCC(=O)NCC1CCCO1)NCC1CCCO1 (centres undefined)	1.63	-0.2
COc1ccc(N2CCN(C3CCCN(Cc4ccccc4OCCO)C3)CC2)cc1 (centres undefined)	0.95	-0.59
O=C(NCc1ccc(-c2csnn2)cc1)c1cccs1	0.87	-0.71
Cc1cc(C)nc(SCC(=O)Nc2ccc(S(=O)(=O)Nc3ncccn3)cc2)n1	1.33	-1.39

Additional compounds
SMILES	KCNQ2 pot	KCNQ2 pot baseline
COc1ccc(/C(N)=N/OC(=O)Cc2ccc(C)cc2)cc1	0.77	-0.65
COc1ccc2nc(NC(=O)CSC(C)C(=O)Nc3cc(C)on3)sc2c1 (centres undefined)	0.57	1.5
CCOc1ccc(N=C2SCC(=O)N2CC)cc1	1.27	-0.03
CCOC(=O)C1CCN(c2c(Nc3ccc4c(c3)OCCO4)c(=O)c2=O)CC1	0.38	-0.38
O=C(Nc1cccnc1)C1CCCN(c2ncnc3c2nc2n3CCCCC2)C1 (centres undefined)	1.62	-0.8
Cc1cccc(NC(=O)CN2CCC(NC(=O)C3CCCCC3)CC2)c1C	1.27	0.02
O=C(NS(=O)(=O)c1ccc2c(c1)OCCO2)c1ccccc1	0.7	0.21
CN1C(=O)c2ccccc2Sc2ccc(NC(=O)N3CCCC3)cc21	1.98	-1.62
COc1cc(C(=O)N/C(=C\c2cn(C)c3ccccc23)C(=O)N2CCN(C)CC2)cc(OC)c1OC	1.14	-1
CN(Cc1ccccc1)C(=O)CCS(=O)(=O)c1cc2c(cc1Cl)NC(=O)CO2	0.49	2.02
Cc1ccc(-c2csc(N3CCN(CCCn4c(C(F)(F)F)nc5ccccc54)CC3)n2)cc1	0.6	0.64
COCCNC(=O)C(c1ccc(C)cc1)N(Cc1cccs1)C(=O)CCC(=O)Nc1ccccn1 (centres undefined)	1.94	-0.34
O=[N+]([O-])c1ccc(COc2ccc(CNc3ccccc3)cc2)cc1	0.41	0.52
O=C(COc1ncnc2c(Cl)cc(Cl)cc12)N1CCN(S(=O)(=O)c2ccccc2)CC1	0.01	1.71
COc1cccc(Oc2ccc(C(F)(F)F)cc2NC(=O)CCc2nc3ccccc3c(=O)[nH]2)c1	0.06	2.78
CC(/C=N/NC(=O)c1cccnc1)=C\c1ccccc1	2.41	-1.92
COc1ccc(C=O)cc1OS(=O)(=O)c1ccccc1[N+](=O)[O-]	0.01	-0.31
CCOP(=O)(c1ccccc1)C1(C#N)CC1 (centres undefined)	0.97	1.03
CCOc1ccccc1OCC(=O)Nc1ccc(S(=O)(=O)Nc2nc(C)cc(C)n2)cc1	1.99	1.49
COc1ccc(OC)c(-c2cc(C(=O)N3CCc4ccccc4C3)no2)c1	0.11	0.02
O=C(Nc1cccc(Cl)c1N1CCOCC1)c1cccnc1Cl	0.55	1.21
O=C1CC(c2cccc(Br)c2)C2=C(CCCC2=O)N1 (centres undefined)	1	0.56
COc1ccc(CNC(=O)C2CCN(S(=O)(=O)c3cccc4nonc34)CC2)cc1	0.02	1.69
CN(C)CCNc1oc(COc2ccc(Cl)cc2)nc1C#N	2.39	-0.16
CCOc1ccc(CN2CCN(CCCn3cccn3)CC2CCO)cc1 (centres undefined)	0.9	-1

Continuation:
SMILES	KCNQ2 pot	KCNQ2 pot baseline
O=C(Cc1ccccc1[N+](=O)[O-])NCCSCc1c(F)cccc1Cl	1.25	1.24
NNC(=O)CCN1CCN(C(c2ccccc2)c2ccccc2)CC1	0.49	-1.06
O=C(c1ccc(Br)cc1)N1CCN(S(=O)(=O)c2ccccc2)CC1	0.49	-1.16
COc1ccc(S(=O)(=O)N2CCCC2C(=O)NCC(=O)Nc2cccc(Cl)c2C)cc1 (centres undefined)	1.46	-2.29
Cc1ccccc1OCc1nnc(SCC(=O)N2CCc3ccccc32)n1C	2.02	-0.35
O=C(CCNS(=O)(=O)c1ccc(Br)cc1)Nc1cccc(F)c1	0.87	-1.48
N/C(=N\OC(=O)c1ccc(F)cc1)c1nonc1N	0.92	-0.04
O=C(NNC(=O)c1csc(N2CCOCC2)n1)c1cccnc1	1.03	-0.54
CN(C)CCCN=C(NO)c1ccc(Cl)cc1Cl	1.19	0.63
COc1ccc(/C=N\NC(=O)C2C(=O)NCC2c2ccccc2)cc1O (centres undefined)	0.11	1.16
CSc1ccccc1NC(=O)c1cc(C)on1	0.03	1.33
Cc1ccc(C(=O)Nc2cccc(C(F)(F)F)c2)cc1Nc1cncnc1	0.25	-0.4
O=C(CCCN1C(=O)c2ccccc2C1=O)OC1CSCC1NC(=O)c1ccccc1 (centres undefined)	0.25	1.28
CCN1C(=O)/C(=C/c2ccc(OCc3ccc(C(=O)O)cc3)c(Cl)c2)NC1=S	3.09	-0.83
O=C(N/N=C/c1ccc(OC(=O)c2ccccc2Cl)cc1)c1ccccn1	1.18	-0.62
COC(=O)c1cc2c(ccc3ccccc32)oc1=O	0.05	-0.02
CCOC(=O)c1cc2cc(F)ccc2nc1C	0.23	2.22
COc1cc(C#N)ccc1OCC(=O)Nc1cccc(S(=O)(=O)N2CCCC2)c1	1.12	-0.42
Cc1ccccc1C(=O)N1CCC(C(=O)Nc2cccc(F)c2)CC1	0.38	-0.18
CCCCc1cc(=O)oc2cc(C)cc(OC(C)C(=O)O)c12 (centres undefined)	0.85	2.92
CCC(C)[C@H](N)c1cn([C@@H](CCCCN)C(=O)N2CCNCC2)nn1 (some centres undefined)	0.29	-1.58

High-throughput results from PubChem.

Some of the compounds tested. The share of hits here may be higher or lower than overall.
